TRPV1 PAM: HTS Assay for Compounds that Act as Potentiators of the Vanilloid Receptor 1; AID 540277, 2011; TRPV1-expressing cells, Fluo-8 calcium influx, capsaicin EC20 potentiation; host cell line not named in the record; control for the full effect not named in the record; Transient receptor potential cation channel subfamily V member 1 (Homo sapiens), Q8NER1; hit rate 0.02% among 320,000; potentiation, % at 8.33 µM; active means potentiation above 80%; inconclusive means 30% to 80%; inactive means below 30%; note: 0% is about no effect
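Cells expressing TRPV1 were dye-loaded with Fluo-8 and read kinetically: 10 s baseline, 3 min after compound (agonist portion), then 2 min after EC20 capsaicin (allosteric enhancer portion). Calcium-bound dye fluorescence at 480/520 nm.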
gsp agonist: qHTS for Agonist of gsp, the Etiologic Mutation Responsible for Fibrous Dysplasia/McCune-Albright Syndrome: qHTS; gsp mutant cells, cAMP HTRF, 30 min; control for the full effect not named in the record; Potency, µM (top dose mostly 76.9 µM), for inactives: top-dose activation (cAMP increase), most hits filed as activators; hit rate 0.13% among 340,000; AID 624287, 2012; active = well fitted activation curve with a large enough effect; inconclusive = small, poorly fitted or top-dose-only effect, or another doubt; inactive = no such curve, though single readings can be large or run the other way; cell line not stated here;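 note: phosphodiesterase inhibitor Ro 20-1724 added with compounds to block cAMP breakdown; potency is the fitted concentration of half-maximal effect; nearly all actives have a fitted effect of over 60% in size; about a fifth of the inactives were tested at one dose only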
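Cells stably selected in G418 were plated at 2000/well, grown 16-24 hr, then given compounds in DMSO with the PDE inhibitor […] (300 uM solution added) for 30 min at 37C; cAMP was read by HTRF.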
TRPML1 blocker: qHTS for Inhibitors of the Human Mucolipin Transient Receptor Potential 1 (TRPML1). Mucolipin-1 (Homo sapiens), Q9GZU1. TRPML1-inducible cells, Ca2+ dye fluorescence, FDSS; hits give low values; inhibition of EC80 agonist-evoked calcium signal. activity change, negative = inhibition, % (no concentration beside the values). hit rate 0.02% among 390,000. AID 624415, 2012; in the data active means activity change below about -50%; inconclusive means about -30% to -50%; inactive means above about -30%;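 note: stimulus is agonist 54-4 at its EC80 concentration; % is set by controls: 0 for no effect and ±100 for the full control effect; compound concentration not given in the record; the text of the record puts the active cut at -80%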
Target sequence (Q9GZU1 whole entry, looked up): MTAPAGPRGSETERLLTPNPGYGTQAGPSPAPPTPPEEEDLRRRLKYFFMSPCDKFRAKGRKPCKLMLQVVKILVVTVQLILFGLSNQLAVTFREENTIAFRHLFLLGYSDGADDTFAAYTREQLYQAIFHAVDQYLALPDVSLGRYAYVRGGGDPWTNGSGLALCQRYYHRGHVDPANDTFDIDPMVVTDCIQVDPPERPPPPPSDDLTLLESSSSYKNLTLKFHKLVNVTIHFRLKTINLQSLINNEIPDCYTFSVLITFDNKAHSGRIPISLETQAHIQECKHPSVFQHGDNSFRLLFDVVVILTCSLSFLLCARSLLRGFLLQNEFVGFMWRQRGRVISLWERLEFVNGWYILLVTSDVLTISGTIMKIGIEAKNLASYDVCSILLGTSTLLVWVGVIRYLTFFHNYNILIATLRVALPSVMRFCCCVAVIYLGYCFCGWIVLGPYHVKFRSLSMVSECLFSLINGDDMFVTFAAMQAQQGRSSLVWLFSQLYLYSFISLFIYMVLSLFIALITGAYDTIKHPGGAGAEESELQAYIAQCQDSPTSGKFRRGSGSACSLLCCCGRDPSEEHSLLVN
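Calcium fluorescence in TRPML1-DL cells induced overnight with Tet: a 110 s read after compound pin addition, then a 110 s antagonist read after challenge with 54-4 at 4 uM final (EC80).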
gsp antag: qHTS for Antagonists of gsp, the Etiologic Mutation Responsible for Fibrous Dysplasia/McCune-Albright Syndrome: qHTS. gsp-mutant cells, cAMP HTRF, 30 min; control for the full effect not named in the record. Potency, µM (highest dose often 76.9 µM), for the others: at the top dose activity change, negative = inhibition, actives largely listed as inhibitors. hit rate 0.4% among 340,000; active = falling curve of any shape with a large fitted effect; inconclusive = falling curve, mostly with a smaller effect; inactive = flat or rising curve; cell line not stated here;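 note: intracellular cAMP measured with PDE inhibitor Ro 20-1724 present during compound exposure; potency is the fitted concentration of half-maximal effect; % is set by controls: 0 for no effect and ±100 for the full control effect; nearly all actives have a fitted effect of over 65% in size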
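Cells in G418 medium, seeded 16-24 h, 37C; buffer exchange to DPBS + 1 mM CaCl2, 0.5 mM MgCl2, 0.05% BSA; cpds in DMSO + […] (300 uM stock), 30 min 37C; HTRF cAMP detection.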
Menin-MLL FL inh: qHTS Assay for Inhibitors Targeting the Menin-MLL Interaction in MLL Related Leukemias: Competition With Fluorescein Labeled MLL-derived Peptide; 290,000 tested, under 10 active; FP activity change, % at 61.4 µM; Fluorescence polarization, fluorescein-MLL peptide displacement from menin; inconclusive = falling polarisation curve, or a change in total fluorescence; inactive = total fluorescence flat and polarisation flat or rising; no compound was filed as active; the % refers to the polarisation; negative = inhibition;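 note: % of control where 0% means no effect; inhibitors lower the polarisation; unlabelled MLL peptide was the positive control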
ClpP mod: qHTS Assay for Activators of ClpP; AID 651965, 2013; purified B. subtilis ClpP, FRET peptide cleavage, 20 min; ATP-dependent Clp protease proteolytic subunit (Bacillus subtilis (strain 168)), P80244; Potency, µM (series often up to 57.5 µM), for inactives: top-dose activity change, negative = active; hit rate 1.9% among 340,000; active = well fitted falling curve with a large enough effect; inconclusive = small, poorly fitted or top-dose-only effect; inactive = no such curve, though single readings can be large or run the other way; note: potency is the fitted concentration of half-maximal effect; the source files actives as falling curves though it sought activators and does not explain the sign; nearly all actives have a fitted effect of over 65% in size; many hits overshoot -100%
Target sequence (P80244 whole entry, looked up): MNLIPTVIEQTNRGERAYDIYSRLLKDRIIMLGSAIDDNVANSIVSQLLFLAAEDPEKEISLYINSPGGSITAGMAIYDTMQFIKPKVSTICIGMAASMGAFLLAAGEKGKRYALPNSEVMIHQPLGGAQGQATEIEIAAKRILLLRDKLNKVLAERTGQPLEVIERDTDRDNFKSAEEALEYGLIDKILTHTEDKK
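FRET quenching reversal measured ClpP activation: 10 microg/mL B. subtilis ClpP at pH 8 with the FRET-FV decapeptide, read at 430 nm after 320 nm excitation. The 20-min minus 0-min signal was scaled between DMSO/no-enzyme wells and ADEP (5.8 microM final).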
Sfp PPTase inh: qHTS Assay for Inhibitors of Bacillus subtilis Sfp phosphopantetheinyl transferase (PPTase) | 4'-phosphopantetheinyl transferase ffp (Bacillus subtilis), Q9F4F7 | Biochemical Sfp PPTase activity, qHTS | Potency, µM, without a hit: max response, negative = inhibition, usual class: inhibitors | hit rate 3.5% among 310,000; active = well fitted inhibition curve with a large enough effect; inconclusive = small, poorly fitted or top-dose-only effect, or another doubt; inactive = no such curve, though single readings can be large or run the other way;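 note: the enzyme is Sfp with the accession as filed and its product quenches rhodamine fluorescence; potency is the fitted concentration of half-maximal effect; 0% = enzyme reaction without inhibitor and -100% = no enzyme wells; top concentration of the series not given in the record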
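Fluorescence-quenching assay with 15 nM Sfp, 5 uM rhodamine-CoA and 12.5 uM BHQ-2-labelled ybbR peptide in pH 7.6 Hepes/MgCl2 buffer. Enzyme was pre-incubated with compound for 15 min at room temperature. Rate was taken from the 30-min fluorescence change (525/598 nm).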
Active calls of the source: *; ? = inconclusive; . = no result given; & = joins results of further samples; [ ] = another dose, or the depositor's remark.

mol | Sfp PPTase inh | gsp agonist | TRPV1 PAM | Menin-MLL FL inh | ClpP mod | gsp antag | TRPML1 blocker
Cc1cc(NC(=O)CSc2nnc(CNc3ccc(F)cc3)n2C2CCCCC2)no1 | 17% | 9% | 2 | -1.1 | -1.6% | 5% | -4
CCN(C(=O)COc1ncnc2sccc12)c1ccccc1 | 2% | 7%[15.4 µM] | 8 | -0.1 | -3.4% | -14% | 6
O=C(COC(=O)c1cn(-c2ccccc2)nc1-c1cccs1)NC1CC1 | 19% | 11% | -19 | 1.5 | -21% | 4% | 5
O=C(c1c(F)cccc1F)N1CCC(O)(c2ccc(F)cc2)CC1 | 9% | 1% | 0 | -1.1 | 2.5% | 7% | .
O=C(OCn1ncc(Br)c(Br)c1=O)c1ccccc1Cl | -16% | ? | 1 | -0.2 | 0.2% | 28% | 20
O=C(NCCN1C(=O)C2C3C=CC(C3)C2C1=O)Nc1ccc(Br)cc1 (stereo not given) | -12% | -52%[inhibitor] | ? | -0.5 | 1.8% | -1% | -4
CCn1c(SCC(N)=O)nc2c1c(=O)n(C)c(=O)n2C | 6% | ? | -3 | 2.1 | -3.5% | 12% | -3
CCC(=O)Nc1c(C#N)c2nc3ccccc3nc2n1-c1ccccc1C | -7% | 18% | -19 | 3.7 | 3.5µM* | 8% | -5
O=C(NC(=O)c1cccc(F)c1)OC[C@@H]1CCCN2CCCC[C@H]12 | 0% | 12% | ? | -2.6 | -0.7% | 9% | -8
COc1ccc(OC)c(N(CC(=O)Nc2cccnc2)S(=O)(=O)c2ccccc2)c1 | 12% | 23% | -8 | 1.0 | 0.0% | -17% | -4
CCOc1cccc(C(=O)Nc2cccc(C(=O)NCC(C)C)c2)c1 | 12% | -3%[15.4 µM] | 6 | 6.4 | -2.1% | -3% | -5
Cc1ccc(OCC(=O)N2CCN(C(=O)c3cccc(F)c3)CC2)cc1 | 12% | -18% | -8 | -0.2 | . | 9% | -1
O=C1OCCC1N1C(=O)c2ccccc2S1(=O)=O (stereo not given) | 11% | -25% | -32 | -0.5 | 0.4% | 1% | 33
CCN(C(=O)CN1C(=O)NC2(CCc3ccccc32)C1=O)C1CCS(=O)(=O)C1 (stereo not given) | . | -26% | -14 | . | -2.2% | 5% | -6
COc1cc2cc(Oc3ccc4ccc(=O)oc4c3)c(=O)oc2cc1OC1OC(COC(=O)CC(C)(O)CC(=O)O)C(O)C(O)C1O (stereo not given) | 4% | . | -6 | 2.7 | 4.8% | 10% | .
CCCc1nnc(SCC(=O)N2CCOCC2)n1C | 10% | -11% | -11 | 2.7 | -1.9% | 12% | -5
COc1ccc(N2C(=O)CSC2c2cccc(F)c2)c(OC)c1 (stereo not given) | 6% | -7% | 3 | 4.6 | 1.1% | -14% | -14
Cc1nnc(SCc2c(Cl)cccc2Cl)s1 | 13% | -1% | 2 | 4.5 | -0.9% | -6% | 27
C=CCc1cc(Cl)ccc1OCCOCCNC(C)(C)C | -13% | -68%[inhibitor] | 1 | -4.5 | -1.3% | 7% | 8
Cc1ccc2cc3c(nc2c1)OCC3 | 18% | 1%[15.4 µM] | -9 | 1.9 | . | -8% | 10
Cc1nc(NC(=O)c2cc3ccccc3o2)sc1C | 3% | ? | -19 | -2.3 | . | -5% | -28
CCCOc1ccc(C(=O)CCC(=O)OCC(=O)N(C)c2c(N)n(Cc3ccccc3)c(=O)[nH]c2=O)cc1 | 7% | -20% | 7 | . | 1.6% | 1% | -18
COc1ccc(NC(=O)CN(C)C(=O)c2ccc3c(c2)OCCO3)cc1 | . | 3% | 8 | . | -5.1% | 8% | 7
CCOCCn1c(=O)c2c(nc3n2CCN3c2ccc(C)cc2)n(C)c1=O | . | 0%[15.4 µM] | . | . | . | 3% | 12
Cc1ccc(-c2cn3c(n2)SCC3)cc1 | 5% | 11%[15.4 µM] | -8 | 0.9 | . | -21% | -18
CCOc1ccc(NS(=O)(=O)c2cc(C(=O)N3CC(C)OC(C)C3)ccc2C)cc1 (stereo not given) | . | 3%[15.4 µM] | 10 | . | 0.8% | -9% | 6
COc1cc(C(C(=O)NC2CCCCC2)N(CCN2CCOCC2)C(=O)C2COc3ccccc3O2)cc(OC)c1OC (stereo not given) | 15% | -1%[15.4 µM] | -5 | 2.0 | -1.7% | -4% | 0
O=C(Nc1ccc([N+](=O)[O-])cc1Cl)c1cc(Cl)ccc1O | 0%&0%&12% | . | -6 | -1.6 | -22% | 2µM* | 47
Cc1ccc(Nc2nnc(SCC(=O)NCC3CCCO3)s2)cc1C (stereo not given) | . | -43%[inhibitor] | . | . | -0.1% | -2% | -13
COc1cccc(C(=O)C(CCC#N)c2ccccc2)c1 (stereo not given) | . | -3% | . | . | -1.8% | . | 1
CCc1cccc(NC(=O)CCC(=O)N2CCSc3ccccc32)c1 | 10% | -21% | 23 | -0.4 | -0.5%&0.6% | -9% | 6&9
CCC1S/C(=N/N=C/c2ccco2)NC1=O (stereo not given) | 3% | -7% | 1 | 8.7 | -3.6% | 2% | -18
O=C(Cn1c(=O)oc2cc(S(=O)(=O)N3CCc4ccccc43)ccc21)N1CCCCC1 | 7% | -43%[inhibitor] | . | 4.0 | -0.2% | -4% | 14
O=c1c2ccccc2cnn1Cc1n[nH]c(=S)n1-c1ccc(F)cc1 | -16% | 34%[15.4 µM] | 28 | 1.5 | . | 5% | -3
CCOc1ccc(/C(O)=C2/C(=O)C(=O)N(c3ncccn3)C2c2ccc(Cl)cc2)cc1 (stereo not given) | ? | 18%[15.4 µM] | 16 | -2.1 | . | -6% | -3
Cc1noc(C)c1CN(C(=S)NC1CC1)c1ccccc1 | 3% | -4% | -7 | 4.5 | -1.6% | 7% | -10
O=S(=O)(Nc1nc2ccccc2[nH]1)c1ccccc1 | -7% | 1% | 19 | -1.7 | -2.2% | 2% | -3
[O-]C(=C(C(=S)Nc1cccc2ccccc12)[n+]1cccc(CO)c1)c1ccc(Cl)s1 | . | -5% | . | . | -14% | -23% | -14
COC(=O)c1cc(NCc2cccs2)ccc1N1CCOCC1 | -22% | 7% | -10 | -1.3 | -2.7% | -6% | 0
CC(=O)NCCC(=O)Nc1cc(S(=O)(=O)N2CCCCC2)ccc1Oc1cccc(C)c1 | 12% | -6% | 3 | . | -19% | 8% | 6
Cc1nc(N)ncc1Sc1ccc(Cl)cc1 | 19% | 2%[15.4 µM] | 5 | 0.0 | . | 1% | -25
CC(=O)NCCC1CCCCN1C(=O)c1cc(COc2cc(C)ccc2C)on1 (stereo not given) | -2% | -6% | -16 | . | -1.7% | 0% | 38
COc1ccc([N+](=O)[O-])cc1NC(=O)CSCc1ccc(Br)cc1 | -7% | -16%[15.4 µM] | -14 | 0.1 | -1.7% | -15% | 46
O=C(CCN1C(=O)C2C3C=CC(C3)C2C1=O)N1CCN(c2cccc(Cl)c2)CC1 (stereo not given) | 0% | 0% | 8 | 5.3 | -0.8% | 1% | 10
CCCCCCn1c(COc2ccccc2F)nnc1SCC(=O)c1c(N)n(C)c(=O)n(C)c1=O | ? | . | -28 | -2.9 | . | . | .
NC(=O)NNc1cccc(Cl)n1 | ? | 5% | -18 | 1.1 | -1.0% | 1% | -8
COc1ccc(C(=O)NCCSC2CCCCC2)cc1 | 9% | 23%[15.4 µM] | -5 | -4.8 | -4.6% | 7% | 1
OCCNCc1cc(Br)ccc1OCc1ccc(Cl)cc1Cl | 0% | -48%[inhibitor] | 9 | -2.1 | -3.2% | 18% | 8
CCOC(=O)c1cc2c(ccn2C)n1CC(=O)N(C)C | -8% | 8% | 8 | -8.3 | -16% | 6% | -5
Cc1cccc(NC(=O)Cn2cnc3c(oc4nc5c(cc43)COC(C)(C)C5)c2=O)c1 | 13% | 0% | -1 | 2.2 | -19% | 1% | -11
Cc1ccccc1N1CCN(C2CCCN(C(=O)c3ocnc3C)C2)CC1 (stereo not given) | 9% | 7% | ? | . | -1.6% | -9% | 1
O=C(NCC(c1ccco1)N1CCc2ccccc2C1)c1cccc([N+](=O)[O-])c1 (stereo not given) | . | -29% | -5 | . | 2.3% | -3% | 0
O=C(NCc1ccc(F)cc1)c1ccc(S(=O)(=O)N2CCCC2)cc1 | . | 5% | . | . | 0.2% | . | 3
O=C(COC(=O)c1ccc([N+](=O)[O-])o1)NC1CCCCC1 | . | -43%[inhibitor] | . | . | 3.5% | 8% | -15
Cc1ccc(NC(=O)/C(=C\c2cccc(Br)c2)NC(=O)c2ccco2)cc1 | 14% | -1% | -8 | 0.8 | 2.3% | 1% | 4
Cc1ccc(OCC(=O)OCC(=O)c2cccc([N+](=O)[O-])c2)cc1C | 11% | 16%[15.4 µM] | 17 | . | -0.2% | 0% | -16
O=C(COC(=O)CCc1nc2ccccc2c(=O)[nH]1)Nc1ccc(Cl)cn1 | 15% | ? | 1 | ? | -6.6% | 12% | .
COc1ccc(Br)cc1CNc1ccc(N2CCOCC2)cc1 | -19% | -6% | 2 | -11 | -2.2% | -2% | -3
Cc1cc(=O)[nH]c2c(N=Nc3ccc(O)cc3)c(N)nn12 | ? | 19% | 13 | 19 | 2.1% | ? | 38
Cc1cc2c(cc1C)CN(c1ccccc1)C2 | -29% | -37%[inhibitor] | 5 | 4.4 | 1.0% | 3% | -13
Cc1cccc(-n2nnc3cnn(C)c3c2=O)c1 | -8% | 3% | -4 | 15 | -12% | 3% | 28
